Ecoli rRNA inh: inhibits bacterial ribosomal RNA function over humanized ribosomes. E. coli WT GFP vs humanized-ribosome RFP mutants, fluorescence, 24 h; stronger effect = lower value; DMSO median 0, no signal -100. GFP signal change (wild-type ribosome), % (no concentration beside the values). 1.6% of 350,000 active;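 active means significant combined selectivity score with lowered wild-type GFP, culture density cut under 30%, mutant RFP and density less affected; inactive means any of these conditions unmet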; further: one replicate is shown; some compounds called inactive have numbers as strong as hits
Ecoli rRNA inh OD600: also measured in Ecoli rRNA inh; calls as there; OD600 change, %; measured here: OD600 growth;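 optical density of the mix in the first replicate; 0 = DMSO median and -100 = no signal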
Ecoli rRNA inh RFP: recorded beside Ecoli rRNA inh, whose call it bears; RFP signal change, %; measured here: RFP humanized mutant strains;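 first replicate; 0 = DMSO median and -100 = no signal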
The depositor's hits bear a star; & = joins results of further samples. Only part of the results is shown (hit frequency here may not be typical).

SMILES	Ecoli rRNA inh	Ecoli rRNA inh OD600	Ecoli rRNA inh RFP
COc1ccc2c(c1)CSC(c1ccccc1)C2=O (stereo unspecified)	-14	-16	8.5
C=CCNc1ccc2c(c1)OC[C@H](CC(C)C)NS2(=O)=O	-23*	-7.1*	3.6*
Cc1ccccc1-c1ccc(C2[C@H]3CNC[C@@H]2N3C(=O)Nc2ccc(C(F)(F)F)cc2)cc1 (stereo partly specified)	-61&-59	-74&-73	-13&-11
CCCC#Cc1cnc2c(c1)C(=O)N([C@H](C)CO)C[C@@H](C)[C@@H](CN(C)C(=O)Cc1ccccc1)O2	6	8	-2.5
O=C(NCC[C@H]1CC[C@@H](NS(=O)(=O)c2cccc(F)c2)[C@H](CO)O1)C1CCOCC1	0	2	0.4
CC(C)C[C@H]1CN(CCCC[C@H]2CNC(=O)C(=O)N2Cc2ccccc2)C(=O)C(=O)N1Cc1ccccc1	-10	-8	0.8
CCCCN1CC(N(C)CCN(C)C)CS1(=O)=O (stereo unspecified)	7	9	6.5
Cc1ccc(S(=O)(=O)N[C@@H]2CC[C@@H](CCNS(=O)(=O)Cc3ccccc3)O[C@H]2CO)cc1	2	11	-0.5
C[C@@H]1CN([C@H](C)CO)C(=O)Cc2cc(NC(=O)CCCN(C)C)ccc2O[C@H]1CN(C)Cc1ccc(-c2ccccc2)cc1	-60	-82	-19
C[C@@H]1CCCCO[C@H](CN(C)C(=O)c2ccccc2)[C@@H](C)CN([C@H](C)CO)C(=O)c2cc(NS(C)(=O)=O)ccc2O1	3	5	0.5
Cc1ccc(S(=O)(=O)N(C)C[C@H]2Oc3ccc(NC(=O)Cc4ccccc4)cc3C(=O)N([C@H](C)CO)C[C@H]2C)cc1	-3	-12	0.5
CCCc1c(C(=O)N/N=C(\C)c2cccnc2)nnn1-c1nonc1N	7	12	1.6
Cc1noc(C)c1NC(=O)N(C)C[C@@H]1Oc2ccc(NC(=O)Cn3cnnn3)cc2CC(=O)N([C@H](C)CO)C[C@H]1C	0	4	1.1
CCOc1cc(OCC)cc(C(=O)N2CCC[C@H]2C(=O)N2CCC[C@H]2C(=O)N(C)Cc2ccccc2)c1	5	2	5.1
C/C=C/c1cnc2c(c1)C(=O)N([C@H](C)CO)C[C@@H](C)[C@@H](CN(C)C(=O)C1CCCCC1)O2	7	14	-1.3
CCCc1nc2nc(C)c(NS(=O)(=O)c3ccc(C)c(C)c3)c(=O)n2[nH]1	4	7	2.4
C[C@H]1CN([C@@H](C)CO)C(=O)Cc2cc(NS(=O)(=O)c3ccc(F)cc3)ccc2O[C@@H]1CN(C)C(=O)NC1CCCCC1	-3	-2	-2.5
COC(=O)C[C@H]1C[C@H]2c3cc(N)ccc3O[C@H]2[C@@H](CO)O1	-1	4	-3.1
Cc1noc(C)c1S(=O)(=O)Nc1ccc2c(c1)CC(=O)N([C@@H](C)CO)C[C@@H](C)[C@@H](CN(C)S(=O)(=O)c1ccc(Cl)cc1)O2	2	-9	4.2
COc1ccc(S(=O)(=O)N(C)C[C@H]2Oc3c(NC(=O)C4CC4)cccc3C(=O)N([C@@H](C)CO)C[C@H]2C)cc1	1	7	0.2
CCCC#Cc1cnc2c(c1)C(=O)N([C@H](C)CO)C[C@H](C)[C@@H](CN(C)S(=O)(=O)c1ccccc1)O2	-2	-10	1.5
Cc1noc(C)c1NC(=O)N(C)C[C@@H]1Oc2ccc(NC(=O)Cc3ccccc3)cc2C(=O)N([C@H](C)CO)C[C@H]1C	3	18	-1.9
CCCNC(=O)N1[C@H](C#N)[C@H](c2ccccc2)[C@H]1CO	0	13	0.2
C[C@@H]1CN([C@@H](C)CO)C(=O)c2cccc(NC(=O)Nc3ccc4c(c3)OCO4)c2O[C@@H]1CN(C)C(=O)Nc1ccc(C(F)(F)F)cc1	-7	-7	-2.7
C[C@@H]1CN([C@@H](C)CO)C(=O)Cc2cc(NS(=O)(=O)c3ccccc3)ccc2O[C@H]1CN(C)C(=O)NC1CCCCC1	5	2	-3.4
(next part)
SMILES	Ecoli rRNA inh	Ecoli rRNA inh OD600	Ecoli rRNA inh RFP
CC(C)CNC(=O)C1(C)CCCN1C(=O)CCc1cccs1 (stereo unspecified)	11	13	1.5
CCOC(=O)C1=CCN(S(=O)(=O)c2cccc(Cl)c2)C1c1ccc(Cl)cc1 (stereo unspecified)	-11	-34	-5.9
COc1ccc(NC(=O)N(C)C[C@H]2Oc3ccc(NC(=O)NC4CCCCC4)cc3CC(=O)N([C@H](C)CO)C[C@@H]2C)cc1	-4	0	-0.9
CCC(=O)N1CC2(C1)CN(Cc1nccs1)[C@@H](CO)c1c2c2ccc(OC)cc2n1C	2	13	-4.8
CN(C)C(=O)C[C@H]1C[C@H]2c3cc(NS(=O)(=O)c4ccccc4)ccc3O[C@H]2[C@H](CO)O1	0	-1	-3.3
COc1cccc(CN2CC3(CN(Cc4ccccn4)C3)c3c([nH]c4cc(OC)ccc34)[C@H]2CO)c1	-2	-2	6.8
CO[C@H]1CN(C)C(=O)c2cc(NC(=O)C3CCC3)ccc2OC[C@@H](C)N(C)C[C@@H]1C	2	6	-0.9
CCCNC(=O)N(C)C[C@@H]1Oc2ncc(C#Cc3ccccc3F)cc2C(=O)N([C@H](C)CO)C[C@@H]1C	1	2	-0.2
O=C(C[C@H]1CC[C@@H](NC(=O)C2CCOCC2)[C@@H](CO)O1)NCc1ccccc1Cl	3	3	0.2
Cc1ccc(-c2cc(NC=O)c3ncc(-c4cnn(C)c4)n3c2)cc1	33	-31	14
CC1=C(C(=O)N(C(C)C)C(C)C)CC(CC(=O)NC(c2ccccc2)c2ccccc2)C(=O)N1CCCN1CCCC1=O (stereo unspecified)	9	13	0.9
C[C@@H]1CN([C@@H](C)CO)C(=O)c2cc(NC(=O)Nc3ccc4c(c3)OCO4)ccc2O[C@@H]1CN(C)Cc1ccc(C(=O)Nc2ccccc2N)cc1	-13	-10	12
C[C@H]1CN([C@@H](C)CO)C(=O)Cc2cc(NS(=O)(=O)c3cn(C)cn3)ccc2O[C@H]1CN(C)CC1CC1	4	0	0.4
CC(=O)N(C)C[C@H]1Oc2cc(C#CC(C)(C)O)ccc2S(=O)(=O)N([C@H](C)CO)C[C@@H]1C	4	8	-2.4
CC(C)(O)C#Cc1ccc([C@@H]2[C@H]3CN(C(=O)c4ccc(F)cc4)CCCCN3[C@H]2CO)cc1	-2	0	1.5
C[C@@H]1CCCCO[C@H](CN(C)S(=O)(=O)c2cn(C)cn2)[C@@H](C)CN([C@H](C)CO)C(=O)c2cc(NS(=O)(=O)c3cn(C)cn3)ccc2O1	4	13	0.9
CC(C)NC(=O)N1CC2(C1)[C@H](c1ccccc1)[C@@H](CO)N2C(=O)C1CCCC1	1	5	-2.3
COc1ccc(NC(=O)Nc2ccc3c(c2)C(=O)N([C@@H](C)CO)C[C@@H](C)[C@@H](CN(C)S(=O)(=O)c2ccc(Cl)cc2)OCCCC[C@@H](C)O3)cc1	6	6	-0.5
COCC(=O)Nc1ccc2c(c1)OC[C@H](C)N(Cc1ccccc1OC)C[C@@H](C)[C@@H](OC)CN(C)C2=O	1	7	0.0
COc1cccc(-c2cnc(C(O)c3cc(Cl)cc(Cl)c3)[nH]2)c1 (stereo unspecified)	-28	-62	-5.8
COC(=O)Cn1cnc2c(NC(=O)c3ccccc3)ncnc21	24	15	2.5
COCC(=O)NC[C@@H]1[C@H](c2ccc(C3=CCCC3)cc2)[C@@H](CO)N1C(C)=O	1	7	-1.7
CC(=O)N(C)C[C@H]1Oc2cc(-c3cncnc3)ccc2S(=O)(=O)N([C@H](C)CO)C[C@@H]1C	1	3	-4.3
Cc1ccc(S(=O)(=O)N(C)C[C@H]2OCCCC[C@H](C)Oc3ccc(NC(=O)c4ccccc4)cc3C(=O)N([C@H](C)CO)C[C@H]2C)cc1	-4	-1	3.8
C/C=C/c1ccc2c(c1)O[C@H](CN(C)C(=O)CC)[C@@H](C)CN([C@H](C)CO)S2(=O)=O	-4	-1	-0.9
Additional entries follow:
SMILES	Ecoli rRNA inh	Ecoli rRNA inh OD600	Ecoli rRNA inh RFP
Cc1ccc(S(=O)(=O)Nc2ccc3c(c2)C(=O)N([C@H](C)CO)C[C@H](C)[C@H](CN(C)C)OCCCC[C@@H](C)O3)cc1	0	0	-1.3
C[C@@H]1CN([C@@H](C)CO)S(=O)(=O)c2ccc(Br)cc2O[C@@H]1CN(C)S(=O)(=O)c1ccc(F)cc1	-11&-27	-35&-45	-7.7&15
COc1ccc(S(=O)(=O)N(C)C[C@H]2Oc3ccc(NC(=O)c4ccncc4)cc3CC(=O)N([C@@H](C)CO)C[C@@H]2C)cc1	-3	-3	0.6
Cc1ccc(N2CC(C(=O)OCC(=O)Nc3c(C)cccc3C)CC2=O)cc1 (stereo unspecified)	-61	-77	-19
COC(=O)C[C@H]1CC[C@@H]2[C@@H](COc3ccc(NC(=O)c4cccc(F)c4)cc3C(=O)N2C)O1	-7	-16	1.3
COc1ccc(-c2ccc([C@@H]3[C@H](CO)N4CCCCN(C(=O)NC(C)C)C[C@@H]34)cc2)cc1	5	13	1.5
C[C@@H]1CN([C@H](C)CO)C(=O)Cc2cc(NC(=O)CCC(F)(F)F)ccc2O[C@@H]1CN(C)CC1CC1	5	8	0.5
CCCNC(=O)C[C@@H]1CC[C@H]2[C@@H](COC[C@@H](O)CN2Cc2ccc(Cl)c(Cl)c2)O1	-6	0	-4.6
COCC(=O)N1[C@H](CNC(=O)c2ccccn2)[C@@H](c2ccccc2)[C@@H]1CO	1	7	-2.8
O=C1c2ccccc2C(c2nnnn2-c2ccc3c(c2)OCCO3)N1C1CC1 (stereo unspecified)	18	11	-1.8
C[C@@H](NC(=O)C[C@H]1CC[C@@H]2[C@H](COC[C@H](O)CN2C(=O)Nc2ccccc2)O1)c1ccccc1	-2	5	-5.4
Cc1ccc([C@@H]2CC(=O)[C@@H]3CN(S(=O)(=O)c4ccccc4C)[C@H](c4ccc(Cl)cc4)C[C@@H]3N2S(=O)(=O)c2ccc(C)cc2)cc1	1	12	-6.1
COCC(=O)N(C)C[C@@H]1Oc2cc(-c3ccccc3F)ccc2S(=O)(=O)N([C@@H](C)CO)C[C@H]1C	-4	-15	-1.5
Cc1noc(C)c1NC(=O)Nc1ccc2c(c1)C(=O)N([C@@H](C)CO)C[C@H](C)[C@H](CN(C)CC1CCCCC1)OCCCC[C@H](C)O2	1	2	-0.7
O=C1CN(S(=O)(=O)Cc2ccccc2)C[C@@H]2[C@@H](c3ccc(C#Cc4cccc(F)c4)cc3)[C@@H](CO)N12	-7	-37	27
CNC[C@H]1Oc2ccc(NC(=O)CCN3CCOCC3)cc2CC(=O)N([C@H](C)CO)C[C@@H]1C	3	6	-0.2
CN(Cc1cccc(C(F)(F)F)c1)C(=O)[C@H]1O[C@@H](n2ccc(N)nc2=O)[C@H](O)[C@@H]1O	20	7	3.2
CCOC(=O)N[C@@H](Cc1cccnc1)C(=O)N1CCC[C@H]1C(=O)NC1CCCC1	11	11	2.9
c1ccc(CNc2cccnc2)cc1	8	14	-7.0
O=S1(=O)N[C@H](c2ccccc2)COc2cc(Br)ccc21	-36	-38	-6.1
C[C@H](CO)N1C[C@H](C)[C@H](CN(C)Cc2ccc(-c3ccccc3)cc2)Oc2ccc(NC(=O)Nc3ccc4c(c3)OCO4)cc2C1=O	-1	-6	2.2
O=C(NCc1ccccn1)[C@@H]1[C@@H](CO)[C@@H]2Cn3c(ccc(C4=CCCC4)c3=O)[C@H]1N2Cc1cccnc1	2	7	-2.7
C[C@H](CO)N1C[C@H](C)[C@H](CN(C)Cc2ccc(C(=O)Nc3ccccc3N)cc2)Oc2c(NC(=O)c3ccncc3)cccc2C1=O	1	6	-2.8
CC(C)NC(=O)Nc1ccc2c(c1)CC(=O)N([C@@H](C)CO)C[C@@H](C)[C@@H](CN(C)Cc1ccc(Oc3ccccc3)cc1)O2	-3	-41	14
O=C(c1ccc(F)cc1)N1CC(=O)N2[C@@H](CO)[C@H](c3ccc(C#Cc4ccc(F)cc4)cc3)[C@@H]2C1	-11	-50	22
COCC(=O)Nc1ccc2c(c1)C(=O)N(C)[C@H]1CC[C@H](CC(=O)OC)O[C@H]1CO2	3	6	-2.7

Compounds listed so far with an aryl methoxy group:
SMILES	Ecoli rRNA inh	Ecoli rRNA inh OD600	Ecoli rRNA inh RFP
COc1ccc2c(c1)CSC(c1ccccc1)C2=O (stereo unspecified)	-14	-16	8.5
COc1ccc(S(=O)(=O)N(C)C[C@H]2Oc3c(NC(=O)C4CC4)cccc3C(=O)N([C@@H](C)CO)C[C@H]2C)cc1	1	7	0.2
COc1ccc(NC(=O)N(C)C[C@H]2Oc3ccc(NC(=O)NC4CCCCC4)cc3CC(=O)N([C@H](C)CO)C[C@@H]2C)cc1	-4	0	-0.9
CCC(=O)N1CC2(C1)CN(Cc1nccs1)[C@@H](CO)c1c2c2ccc(OC)cc2n1C	2	13	-4.8
COc1cccc(CN2CC3(CN(Cc4ccccn4)C3)c3c([nH]c4cc(OC)ccc34)[C@H]2CO)c1	-2	-2	6.8
COc1ccc(NC(=O)Nc2ccc3c(c2)C(=O)N([C@@H](C)CO)C[C@@H](C)[C@@H](CN(C)S(=O)(=O)c2ccc(Cl)cc2)OCCCC[C@@H](C)O3)cc1	6	6	-0.5
COCC(=O)Nc1ccc2c(c1)OC[C@H](C)N(Cc1ccccc1OC)C[C@@H](C)[C@@H](OC)CN(C)C2=O	1	7	0.0
COc1cccc(-c2cnc(C(O)c3cc(Cl)cc(Cl)c3)[nH]2)c1 (stereo unspecified)	-28	-62	-5.8
COc1ccc(S(=O)(=O)N(C)C[C@H]2Oc3ccc(NC(=O)c4ccncc4)cc3CC(=O)N([C@@H](C)CO)C[C@@H]2C)cc1	-3	-3	0.6
COc1ccc(-c2ccc([C@@H]3[C@H](CO)N4CCCCN(C(=O)NC(C)C)C[C@@H]34)cc2)cc1	5	13	1.5
